Screening results (PubChem)
VACV Venus inh: qHTS for Stage-Specific Inhibitors of Vaccinia Orthopoxvirus: Venus Reporter Primary qHTS | Potency, µM (titrated, usually from 36.5 µM), without a hit: at the top dose activity change, negative = inhibition, actives largely listed as inhibitors | 330,000 tested, 0.46% active | Vaccinia virus Venus reporter expression, fluorescence; active means well fitted inhibition curve with a large enough effect; inconclusive means small, poorly fitted or top-dose-only effect; inactive means no such curve, though single readings can be large or run the other way; tested in A549 cells; note: nearly all actives have a fitted effect of over 30% in size; inactives centre near -10
Vaccinia mCherry: qHTS for Stage-Specific Inhibitors of Vaccinia Orthopoxvirus: mCherry Reporter Primary qHTS; Vaccinia virus mCherry reporter infection, fluorescence; about a quarter of the inactives have no number; Potency, µM (top dose mostly 36.5 µM), for inactives: top-dose activity change, negative = inhibition, usual class: inhibitors; 310,000 tested, 0.63% active; active = well fitted inhibition curve with a large enough effect; inconclusive = small, poorly fitted or top-dose-only effect; inactive = no such curve, though single readings can be large or run the other way; tested in A549 cells; note: nearly all actives have a fitted effect of over 35% in size; inactives centre near -10
* = called active by the depositor; & = joins results of further samples; [ ] = remark or other dose. % is set by controls: 0 for no effect and ±100 for the full control effect; potency is the fitted concentration of half-maximal effect.

For O=C(NCc1ccco1)C(c1ccccc1)N(CC1CCCO1)C(=O)Cn1nnc2ccccc21 (stereo unspecified) the results were VACV Venus inh -3.1% and Vaccinia mCherry -13.0%.
`CCn1c(C)csc1=NC(=O)c1ccccc1` gave VACV Venus inh -4.5% and Vaccinia mCherry -5.9%.
For COc1cccc(NS(=O)(=O)c2ccc3[nH]cc(C(=O)N(C)Cc4ccco4)c(=O)c3c2)c1 the results were VACV Venus inh -6.6%&-5.1% and Vaccinia mCherry -13.4%&-14.1%.
Cc1ccc([C@@H]2C[C@H]3[C@@H](CN2S(=O)(=O)c2ccc(C)cc2)C(=O)C[C@@H](c2ccc(Cl)cc2)N3S(=O)(=O)c2ccccc2C)cc1 was read as VACV Venus inh -8.5% and Vaccinia mCherry inactive.
Screening Cc1c(C(=O)N2CCCC2)c(S(=O)(=O)N2CCCCC2)c(C)n1C returned VACV Venus inh -22.6% and Vaccinia mCherry -12.5%.
`O=C(Nc1cccc(C(F)(F)F)c1)Nc1ccc2snnc2c1` gave VACV Venus inh inconclusive and Vaccinia mCherry inconclusive.
For CCc1ccc(NC(=O)COCc2cc(-c3ccc(F)cc3)on2)cc1 the results were VACV Venus inh -13.4% and Vaccinia mCherry -11.9%.
For Nc1c(Cl)cc(-c2csc(N3CCCC3c3nc4cc(Cl)c(N5CCCCC5)cc4n3CCCO)n2)cc1Cl (stereo unspecified) the results were VACV Venus inh -5.8% and Vaccinia mCherry inconclusive.
Screening CC(C)(C)OC(=O)NCc1ccc(NC(=O)c2nc[nH]c2C(=O)NCCCCCCNC(=O)c2[nH]cnc2C(=O)Nc2ccc(CNC(=O)OC(C)(C)C)cc2)cc1 returned VACV Venus inh inconclusive and Vaccinia mCherry -22.7%.
For CCOC(=O)c1ccc(NC(=O)COc2ccc(S(=O)(=O)NC(C)(C)C)cc2)cc1 the results were VACV Venus inh -16.3%.
`O=C(Cc1ccccc1)N1CCN(Cc2ccccn2)CC1` gave VACV Venus inh 8.3% and Vaccinia mCherry -12.7%.
`COc1ccc(CCNc2nc(C)c(C(C)=O)s2)cc1OC` gave VACV Venus inh -8.0% and Vaccinia mCherry inactive.
NNC(=O)CSCc1nc(-c2ccc(Cl)cc2)cs1 was read as VACV Venus inh 11.2% and Vaccinia mCherry inconclusive.
Screening Cc1ccnc(NC(=O)c2ccc3c(c2)OCO3)c1 returned VACV Venus inh -19.7% and Vaccinia mCherry -12.8%.
`COc1ccc(CCNc2c(C)c(C)nc3ncnn23)cc1` gave VACV Venus inh inconclusive and Vaccinia mCherry inconclusive.
Cc1cc(O)c(C=Nc2ccc(N3CCOCC3)cc2)c(C)c1Cl was read as VACV Venus inh -4.6% and Vaccinia mCherry -2.5%.
`C=CCn1c(SCC(=O)Nc2ccc(OC)cc2)nc2ccccc2c1=O` gave VACV Venus inh -18.1% and Vaccinia mCherry -15.5%.
O=c1c(O[C@@H]2O[C@H](CO)[C@@H](O)[C@H](O)[C@H]2O)c(-c2ccc(O)cc2)oc2cc(O)cc(O)c12 was read as VACV Venus inh -9.8% and Vaccinia mCherry inactive.
`CCOCCCNC(=O)C1CCN(c2nc3ccc(Cl)cc3[nH]2)CC1` gave VACV Venus inh -6.2% and Vaccinia mCherry inactive.
Screening N#Cc1ccc(NC(=O)c2ccc3c(c2)nnn3C2CCCC2)cc1 returned VACV Venus inh 0.7% and Vaccinia mCherry -6.3%.
`CCCSc1ncnc2c1c(-c1ccccc1)cn2-c1ccccc1OC` gave VACV Venus inh -10.0% and Vaccinia mCherry -19.1%.
`O=C(N/N=C/c1ccccn1)c1ccncc1` gave VACV Venus inh -15.4% and Vaccinia mCherry -7.9%.
CN1/C(=C\C=[N+](C)c2ccccc2)C(C)(C)c2ccccc21 was read as VACV Venus inh inconclusive and Vaccinia mCherry -10.7%.
Screening Nc1cc(=O)nc(SCC(=O)N2CCN(c3ccccc3)CC2)n1-c1ccccc1 returned VACV Venus inh -2.2% and Vaccinia mCherry -12.2%.
`O=C1c2ccccc2C(=O)N1c1nccs1` gave VACV Venus inh -16.9% and Vaccinia mCherry inactive.
`Cc1ccc(S(=O)(=O)N2CCOCC2)cc1C(=O)N1CCCC1` gave VACV Venus inh -5.9% and Vaccinia mCherry -1.3%.
For COC(=O)c1cccc(N(C(=O)CNC(=O)c2cccs2)C(C(=O)NCC2CCCO2)c2ccc(OC)c(OC)c2)c1 (stereo unspecified) the results were VACV Venus inh 3.6% and Vaccinia mCherry 10.3%.
For CC(C)CCN1CC(O)=C(c2nc(-c3ccc(Cl)cc3)cs2)C1=N the results were VACV Venus inh -2.2%.
For Cc1cc(C)c(Cn2c(C)c(CNCc3ccccc3C)c(C(=O)O)c2C)c(C)c1 the results were VACV Venus inh -0.2% and Vaccinia mCherry -4.1%.
For COC(=O)c1ccc(Cn2nc(C)cc2C)cc1 the results were VACV Venus inh -14.3% and Vaccinia mCherry inactive.
`Cc1cccc(C)c1NC(=O)C1(C)CCC(=O)N1CCOc1ccccc1` (stereo unspecified) gave VACV Venus inh -2.1% and Vaccinia mCherry 37.6%[activator].
Screening COc1cc2c(cc1OC)CN(C(=O)Cc1ccccc1)CC2 returned VACV Venus inh -19.6% and Vaccinia mCherry -0.7%.
O=C(c1ccc(-c2ccccc2)c(F)c1)C1CCCN(CCO)C1 (stereo unspecified) was read as VACV Venus inh -8.4% and Vaccinia mCherry -6.2%.
Screening Nc1nnnn1/N=C/c1cc(Cl)cc(Cl)c1OCc1ccc(Cl)cc1Cl returned VACV Venus inh 0.0% and Vaccinia mCherry -7.2%.
`Cc1c(C(=O)N(Cc2ccc(Cl)cc2)C2CCS(=O)(=O)C2)oc2ccccc12` (stereo unspecified) gave VACV Venus inh -18.3% and Vaccinia mCherry -6.9%.
`CCCCNCCOCCOc1ccc(Cl)cc1Br` gave VACV Venus inh -19.8% and Vaccinia mCherry -18.0%.
`O=c1c2ccc(Cl)cc2nc(-c2ccc([N+](=O)[O-])cc2)n1O` gave VACV Venus inh -25.0% and Vaccinia mCherry inactive.
CCc1ccc(NC(=O)c2cc(-c3ccc4c(c3)OCO4)on2)cc1 was read as VACV Venus inh -2.8% and Vaccinia mCherry -23.5%.
For Cc1ccc(NCCN(C)C)c2c(=O)c3cc(O)ccc3sc12 the results were VACV Venus inh inconclusive and Vaccinia mCherry 1.41µM*.
`CCOC(=O)c1c(NC(=O)CSc2nncn2C)sc(C)c1C` gave VACV Venus inh -9.8% and Vaccinia mCherry -14.1%.
For COc1ccccc1NC(=S)NC1CCCCCC1 the results were VACV Venus inh -8.4% and Vaccinia mCherry -21.5%.
`CC(C)(C)c1ccc(C(=O)NCCCNC(=O)c2ccco2)cc1` gave VACV Venus inh -10.1% and Vaccinia mCherry -12.0%.
COc1cccc(NC(=O)Nc2cc(Cl)ccc2C)c1 was read as VACV Venus inh -25.1% and Vaccinia mCherry inactive.
Screening O=C(Cc1ccc(Br)cc1)N1CCCC1 returned VACV Venus inh -10.4% and Vaccinia mCherry -7.0%.
For Cc1ccccc1-c1nc(CS(=O)(=O)CC(=O)NCC(C)c2ccccc2)c(C)o1 (stereo unspecified) the results were VACV Venus inh -4.0% and Vaccinia mCherry -5.6%.
`Cc1ccc(C(=O)N(Nc2nc3ccccc3s2)C(=O)c2ccc(C)cc2)cc1` gave VACV Venus inh 0.9% and Vaccinia mCherry -1.2%.
For COC1OC2COC(c3ccccc3)OC2C(O)C1N (stereo unspecified) the results were VACV Venus inh 6.3% and Vaccinia mCherry -17.4%.
`CC(C)CC1c2[nH]c3ccccc3c2CCN1C(=O)CCC(=O)N(C)C` (stereo unspecified) gave VACV Venus inh -3.4% and Vaccinia mCherry -13.7%.

Structures listed so far that contain two or more sulfur atoms (three):
Cc1ccc([C@@H]2C[C@H]3[C@@H](CN2S(=O)(=O)c2ccc(C)cc2)C(=O)C[C@@H](c2ccc(Cl)cc2)N3S(=O)(=O)c2ccccc2C)cc1 was read as VACV Venus inh -8.5% and Vaccinia mCherry inactive.
NNC(=O)CSCc1nc(-c2ccc(Cl)cc2)cs1 was read as VACV Venus inh 11.2% and Vaccinia mCherry inconclusive.
`CCOC(=O)c1c(NC(=O)CSc2nncn2C)sc(C)c1C` gave VACV Venus inh -9.8% and Vaccinia mCherry -14.1%.

Continuation:
Screening CCSC1=C(C#N)C(c2ccccc2Cl)CC(=O)N1 (stereo unspecified) returned VACV Venus inh -5.5% and Vaccinia mCherry inactive.
For Cc1ccc(NC(=O)CN2CCc3cc4c(cc3C2C)OCCCO4)cc1 (stereo unspecified) the results were VACV Venus inh -17.5% and Vaccinia mCherry -29.2%.
`COc1ccc(NC(=O)CSc2nnc(NC(=O)c3ccco3)s2)cc1OC` gave VACV Venus inh -11.5% and Vaccinia mCherry -2.5%.
For CCc1nonc1NC(=O)c1oc2ccccc2c1C the results were VACV Venus inh -10.1% and Vaccinia mCherry -22.6%.
`O=C(CCCN1C(=O)c2cccc3cccc(c23)C1=O)NCc1cccnc1` gave VACV Venus inh -0.4% and Vaccinia mCherry inactive.
CCc1ccc(Nc2cnn(-c3nc4ccccc4s3)c(=O)c2Cl)cc1 was read as VACV Venus inh inconclusive and Vaccinia mCherry inconclusive.
`CCn1nc(C)c(/C=N\NC(=O)c2ccc3c(c2)OCO3)c1C` gave VACV Venus inh -1.8% and Vaccinia mCherry -18.4%.
Screening O=C1c2cccc(NCCNCCO)c2C(=O)c2cccc(NCCNCCO)c21 returned VACV Venus inh inconclusive and Vaccinia mCherry inconclusive.
Cn1c(=O)[nH]c(=O)c2c1nc(N)n2Cc1ccccc1 was read as VACV Venus inh -9.2% and Vaccinia mCherry inactive.
For Cn1cnc2nc[nH]c2c1=S the results were VACV Venus inh -9.4% and Vaccinia mCherry -13.0%.
COc1cc(NC(=O)CSc2ncnc3sc4c(c23)CCC(C)C4)c(C(=O)O)cc1OC (stereo unspecified) was read as VACV Venus inh -0.2% and Vaccinia mCherry -7.5%.
`COc1ccc(-n2c(C)nc(N)c2C(=O)c2ccccc2)cc1` gave VACV Venus inh -3.9% and Vaccinia mCherry inactive.
`CCOC(=O)c1c(N)sc2c(NC(C)=O)cccc12` gave VACV Venus inh -7.6% and Vaccinia mCherry -20.9%.
`COC(=O)[C@@H]1C[C@H]2CC[C@H](O)C[C@H]2N1Cc1ccc(C)s1` gave VACV Venus inh -7.1% and Vaccinia mCherry -14.9%.
`Nn1cnnc1SCC(=O)Nc1ccc2c(c1)OCO2` gave VACV Venus inh -5.6% and Vaccinia mCherry -1.9%.
Screening CC(=O)Nc1cccc(/C(C)=N/NC(=O)c2cccc(S(=O)(=O)N3CCCC3)c2)c1 returned VACV Venus inh -14.1% and Vaccinia mCherry -8.1%.
Screening CC(=O)N1CC(C)c2scc(C)[n+]2-c2ccccc21 (stereo unspecified) returned VACV Venus inh inconclusive and Vaccinia mCherry inconclusive.
For Cc1cc(=O)[nH]c(N/N=C/c2ccc(OC(=O)c3cccnc3)cc2)n1 the results were VACV Venus inh -21.5% and Vaccinia mCherry -7.8%.
Screening Cc1c(Cl)c([N+](=O)[O-])nn1CCCC(=O)NC(C)c1ccccc1 (stereo unspecified) returned VACV Venus inh -15.1% and Vaccinia mCherry inactive.
`CN(C)S(=O)(=O)c1cccc(C(=O)Nc2ccccc2N2CCCCC2)c1` gave VACV Venus inh -8.4% and Vaccinia mCherry inactive.
O=C(N/N=C/c1cc2cc3c(cc2nc1Cl)OCCO3)c1ccccc1O was read as VACV Venus inh -19.0% and Vaccinia mCherry -13.5%.
Screening O=C(NNC(=O)C1CCN(Cc2ccccc2)CC1)c1cccc(Cl)c1 returned VACV Venus inh -19.0%.
`CC(=O)Nc1cc(NC(C)=O)cc(-c2nc3ccccc3[nH]2)c1` gave VACV Venus inh -3.0%&-20.9% and Vaccinia mCherry inconclusive.
For CC(=O)C1=C(C)NC(SCC(=O)c2cc(Cl)ccc2Cl)=C(C#N)C1c1ccco1 (stereo unspecified) the results were VACV Venus inh -10.2% and Vaccinia mCherry -13.6%.
`CC(NC(=O)CSc1ncccn1)c1ccc(Cl)cc1Cl` (stereo unspecified) gave VACV Venus inh 3.4% and Vaccinia mCherry -18.2%.
`c1ccc2c(c1)COc1c3cc4c(cc3nn1-2)OCO4` gave VACV Venus inh -1.6% and Vaccinia mCherry -10.2%.
For O=S(=O)(Nc1nccs1)c1cc(Cl)ccc1Cl the results were VACV Venus inh -0.6%.
For Cc1ccc(-c2nnn(CC(=O)N(CCO)C(C(=O)NC3CCCC3)c3ccc(F)cc3)n2)o1 (stereo unspecified) the results were VACV Venus inh -3.8% and Vaccinia mCherry inactive.
`NCCSc1nc2ccccc2s1` gave VACV Venus inh -23.2% and Vaccinia mCherry -8.5%.
`O=C(COC(=O)C1CCC1)NC(=O)c1ccccc1` gave VACV Venus inh -11.5% and Vaccinia mCherry -14.3%.
`COC(=O)c1ccc(COC(=O)[C@@H]2CC(O)CN2S(=O)(=O)c2ccccc2[N+](=O)[O-])cc1` (stereo partly specified) gave VACV Venus inh -7.2% and Vaccinia mCherry -6.7%.
Screening CC(OC(=O)CCCN=C1NS(=O)(=O)c2ccccc21)C(=O)N(C)c1ccccc1 (stereo unspecified) returned VACV Venus inh -11.6% and Vaccinia mCherry -12.0%.
Screening COc1ccc(S(=O)(=O)Nc2c(NC3CCCCC3)c3ccccc3oc2=O)cc1 returned VACV Venus inh 0.0%[7.34 µM] and Vaccinia mCherry -3.9%[7.34 µM].
O=S(=O)(c1ccc(S(=O)(=O)N2CCOCC2)cc1)N1CCCC1 was read as VACV Venus inh 7.6% and Vaccinia mCherry 4.7%.
